Bioassay records (PubChem BioAssay)
CtBP-E1A inh = qHTS Assay for Inhibitors of the CtBP/E1A Interaction | 340,000 compounds, 0.49% hits | activity change, % (concentration not given with the values) | AlphaScreen GST-E1A/His-CtBP binding, 1536-well; active compounds read low; control for the full effect not named in the record | CtBP / adenovirus E1A interaction (AlphaScreen); in the data active means activity change below about -65%; inconclusive means about -30% to -65%; inactive means above about -30%; note: % is set by controls: 0 for no effect and ±100 for the full control effect
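GST-E1A and His-tagged CtBP (125 nM each as 5X stock) were preincubated with pin-transferred compound for 2 h at 37 °C in the dark, then glutathione donor and nickel acceptor beads were added for 1 h before AlphaScreen reading.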
D2 agonist = Beta-Arrestin HTS for Positive Allosteric Modulators of the Human D2 Dopamine Receptor: Agonists. DiscoveRx PathHunter D2 beta-arrestin, luminescence, 90 min; 100% = 57 uM dopamine signal. activation, % (test concentration not listed). 360,000 compounds, 0.084% hits; in the data active = activation above about 40%; inconclusive = about 15% to 40%; inactive = below about 15%; note: compound concentration not given in the record; the text of the record calls up to 30% inactive
Target sequence (P14416 whole entry, looked up): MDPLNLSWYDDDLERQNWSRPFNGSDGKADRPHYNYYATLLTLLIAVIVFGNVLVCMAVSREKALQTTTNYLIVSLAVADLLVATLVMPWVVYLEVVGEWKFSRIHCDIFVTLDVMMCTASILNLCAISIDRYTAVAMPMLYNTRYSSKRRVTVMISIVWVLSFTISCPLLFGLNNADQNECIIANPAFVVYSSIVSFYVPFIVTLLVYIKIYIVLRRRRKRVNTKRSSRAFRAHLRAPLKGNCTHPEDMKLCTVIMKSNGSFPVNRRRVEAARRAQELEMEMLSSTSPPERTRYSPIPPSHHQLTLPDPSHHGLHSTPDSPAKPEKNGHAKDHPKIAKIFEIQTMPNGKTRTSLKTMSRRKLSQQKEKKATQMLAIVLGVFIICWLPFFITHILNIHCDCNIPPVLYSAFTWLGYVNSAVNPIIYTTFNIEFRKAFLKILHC
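DiscoveRx PathHunter D2 beta-arrestin cells (2,100/well) attached overnight, then compound-stimulated 90 min at 37 C in HBSS/10 mM HEPES/0.1% Tween-20 buffer; beta-galactosidase complementation read by luminescence after 1 h at ambient temperature. Dopamine 57 uM final (EC100) as control.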
PINK1 modulator = A Quantitative High throughput Screen to Identify Chemical Modulators of PINK1 Expression | 410,000 compounds, 0.2% hits | AID 624263, 2012 | PINK1 immunofluorescence, high-content cytometry, 24 h | Potency, µM (top dose mostly 76.6 µM), without a hit: at the highest dose activation (PINK1 increase), usual class: activators; active = well fitted activation curve with a large enough effect; inconclusive = small, poorly fitted or top-dose-only effect; inactive = flat fitted curve, though single readings scatter; cell line not stated here;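 note: potency is the fitted concentration of half-maximal effect; % of control where 0% means no effect; nearly all actives have a fitted effect of over 65% in size; a mitochondrial uncoupler was the plate control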
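Measures PINK1 amount and localization on or inside mitochondria by immunofluorescence. Stable cells get compounds at 5 concentrations for 24 hours before fixation and staining; CCCP controls included.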
D2 PAM = Beta-Arrestin HTS for Positive Allosteric Modulators of the Human D2 Dopamine Receptor: Potentiators; DiscoveRx D2 beta-arrestin cells, luminescence, 90 min; 100% = 57 uM dopamine signal; potentiation, % (test concentration not listed); 360,000 compounds, 0.23% hits; AID 624464, 2012; active = potentiation of 50% or more; inconclusive = 30% to 50%; inactive = 30% or less;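 note: compound concentration not given in the record; tested on top of an EC20 dose of dopamine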
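D2 cells co-treated with compound plus 50 nM dopamine (EC20) for 90 min at 37 deg C to detect potentiation. Beta-arrestin recruitment was read as enzyme-fragment luminescence after 1 h at ambient temperature. Full response was set by 57 uM dopamine.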
TRPML1 agonist = qHTS for Agonists of the Human Mucolipin Transient Receptor Potential 1 (TRPML1). AID 624414, 2012. activation, % (test concentration not listed). TRPML1-expressing cells, Ca2+ dye fluorescence, FDSS; host cell line not named in the record; reference of the full effect not given here. 410,000 compounds, 0.12% hits; in the data active = activation above about 50%; inconclusive = about 30% to 50%; inactive = below about 30%; note: 0% is about no effect; the text of the record puts the active cut at 80%
Target sequence (Q9GZU1 whole entry, looked up): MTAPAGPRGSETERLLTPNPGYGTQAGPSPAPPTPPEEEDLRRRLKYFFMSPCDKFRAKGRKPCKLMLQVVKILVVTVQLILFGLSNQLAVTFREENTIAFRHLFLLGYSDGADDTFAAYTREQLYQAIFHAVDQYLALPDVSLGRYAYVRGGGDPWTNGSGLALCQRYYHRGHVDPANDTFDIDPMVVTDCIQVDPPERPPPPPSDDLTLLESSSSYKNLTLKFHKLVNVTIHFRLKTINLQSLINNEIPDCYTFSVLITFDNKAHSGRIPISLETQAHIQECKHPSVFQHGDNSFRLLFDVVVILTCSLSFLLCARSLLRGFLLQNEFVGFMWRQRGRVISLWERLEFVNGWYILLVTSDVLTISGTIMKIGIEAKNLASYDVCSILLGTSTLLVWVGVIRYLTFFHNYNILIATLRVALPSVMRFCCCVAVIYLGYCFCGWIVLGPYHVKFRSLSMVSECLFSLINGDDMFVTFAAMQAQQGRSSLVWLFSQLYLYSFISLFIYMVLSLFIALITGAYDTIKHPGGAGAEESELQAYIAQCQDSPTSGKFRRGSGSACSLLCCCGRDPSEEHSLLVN
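TRPML1-DL cells, Tet-induced overnight (~16 h, 37 degrees C), loaded 45-90 min at room temperature with Ca8 no-wash calcium dye plus quencher. FDSS fluorescence: 10 s baseline, compound pin-transfer, 110 s agonist read, then EC80 54-4 (4uM final) and 110 s antagonist read.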
Six1-Eya2 inh = qHTS Assay for Inhibitors of the Six1/Eya2 Interaction; activity change, % (no concentration beside the values); AlphaScreen GST-Six1/His-Eya2 binding, biochemical; active compounds read low; control for the full effect not named in the record; Homeobox protein SIX1 (Homo sapiens) + Protein phosphatase EYA2 (Homo sapiens), …; AID 651725, 2012; 360,000 compounds, 0.56% hits; in the data active = activity change below about -65%; inconclusive = about -30% to -65%; inactive = above about -30%; note: % is set by controls: 0 for no effect and ±100 for the full control effect
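Six1/Eya2 binding was read as AlphaScreen signal after compounds were pinned into GST-Six1 plus His-tagged Eya2 (5X stock 250/500 nM) in pH 8.0 Tris/NaCl/TCEP buffer, beads added, then incubated 1 h, 37 C, dark.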
An asterisk follows results filed as active; ? = inconclusive; / = no result given; & = joins results of further samples; [ ] = another dose, or the depositor's remark.

The opening two compounds (preview)
SMILES	CtBP-E1A inh	D2 agonist	PINK1 modulator	D2 PAM	TRPML1 agonist	Six1-Eya2 inh
Cc1cccc(-c2nc(CS(=O)CC(=O)N3CC(C)CC(C)C3)c(C)o2)c1 (configuration not stated)	-1	0.1	-0.7%	-1	0.3	1
CCSc1nnc(NC(=O)C2(C)Cc3ccccc3C(=O)O2)s1 (configuration not stated)	4	2.4	2.7%[38.3 µM]	-1	2.2	5

All compounds of this part (from the top)
SMILES	CtBP-E1A inh	D2 agonist	PINK1 modulator	D2 PAM	TRPML1 agonist	Six1-Eya2 inh
Cc1cccc(-c2nc(CS(=O)CC(=O)N3CC(C)CC(C)C3)c(C)o2)c1 (configuration not stated)	-1	0.1	-0.7%	-1	0.3	1
CCSc1nnc(NC(=O)C2(C)Cc3ccccc3C(=O)O2)s1 (configuration not stated)	4	2.4	2.7%[38.3 µM]	-1	2.2	5
CC(C)(C)OC(=O)NCCCC[C@H](NC(=O)c1[nH]cnc1C(=O)N[C@@H](Cc1ccccc1)C(=O)OC(C)(C)C)C(=O)OC(C)(C)C	-7	2.6	0.9%	-2	3.6	-7
O=C(N/N=C/c1ccccn1)c1ccc(Br)o1	-75*	0.8	0.0%	-7	0.0	-66*
CC(C)=C1C2CCC1C1C(=O)N(c3nc(-c4ccc(F)cc4)c(C)s3)C(=O)C21 (configuration not stated)	-11	-5.0	-1.3%	-32	3.5	-18
Cc1ccc(S(=O)(=O)Cc2cn3cccnc3n2)cc1	4	-3.0	-0.5%	-1	-0.5	8
CCN(CC(=O)Nc1ccc(OC)cc1)C(=O)c1cccc(S(=O)(=O)N2CCN(c3ccccc3)CC2)c1	-11	-1.3	0.0%	-25	0.4	5
Cc1ccc([C@H]2C[C@H](O)[C@@H](n3cc(-c4ccc(F)cc4)nn3)CN2C(=O)c2cccs2)cc1	-21	-1.0	-1.7%	-5	2.2	-4
O=C(O)CSC1CC(=O)N(c2ccc(Br)cc2)C1=O (configuration not stated)	0	-4.6	3.2%	-3	-0.3	14
CC(=O)c1c(C)oc2ccc(NS(=O)(=O)c3ccc(C)cc3)cc12	3	-2.1	4.2%	1	4.4	2
C[C@H]1CN([C@@H](C)CO)S(=O)(=O)c2ccc(-c3cccc(F)c3)cc2O[C@@H]1CN(C)C	2	-0.9	-2.1%	0	0.2	-2
O=S(=O)(c1ccc2ccccc2c1)N1CCCCC1	11	-0.3	4.6%[38.3 µM]	-13	2.3	8
O=C(Oc1ccc2ccc(=O)oc2c1)N1CCOCC1	-18	-7.0	0.0%	8	0.9	14
Cc1ccc(Cl)cc1N1CCN(C(=O)CCCn2c(=O)c3cccn3c3cccnc32)CC1	/	-1.7	0.0%	-9	2.4	-22
Cc1csc(NC(=O)c2cc3c(s2)CCCCC3)n1	-4	-1.8	7.8%	-10	2.3	6
COCCNC(=O)C1CCCN(Cc2ccc(Cl)cc2)CC1 (configuration not stated)	30	-4.4	1.7%	-5	-0.4	4
COc1ccccc1N1CCN(C2CCCN(S(=O)(=O)c3ccc(C)cc3)C2)CC1 (configuration not stated)	-10	-4.5	-0.1%	-52	0.3	-18
CC(Oc1ccccc1)C(=O)NCc1cccnc1 (configuration not stated)	-11	-2.6	19%[38.3 µM]	2	0.2	-6
Cc1ccc(C(=O)Nc2cccc([N+](=O)[O-])c2)cc1S(=O)(=O)Nc1ccc(C(=O)O)cc1	?	-5.7	2.0%	2	-0.7	?
CCOC(=O)/C(C#N)=C/c1cn(CCOc2ccccc2)c2ccccc12	5	1.9	0.4%	-9	2.0	3

Single values from the entries so far:
PINK1 modulator result of `CCOC(=O)/C(C#N)=C/c1cn(CCOc2ccccc2)c2ccccc12` → 0.4%
Six1-Eya2 inh result of `O=C(Oc1ccc2ccc(=O)oc2c1)N1CCOCC1` → 14

(next part)
SMILES	CtBP-E1A inh	D2 agonist	PINK1 modulator	D2 PAM	TRPML1 agonist	Six1-Eya2 inh
CCOc1ccc(Nc2nc(N)c([N+](=O)[O-])c(N3CCN(C)CC3)n2)cc1	14	-5.4	-2.3%	-10	3.3	7
Cc1cc2c(cc1S(=O)(=O)N1CCN(c3ccccc3)CC1)OCC(=O)N2	0	-7.5	5.2%	-2	-0.3	3
COCCOC(=O)c1c(C)oc2ccc(OCc3ccccc3)cc12	46	-5.1	4.8%	-5	0.7	73
COc1cccc(-n2c(SCC(=O)Nc3nccs3)nnc2-c2ccoc2C)c1	-7	-2.4	-1.0%	-24	2.1	-8
CC(C)/C=C1\CC/C(=C\c2cccnc2)C1=O	/	0.2	-0.1%	-8	0.5	3
COc1ccccc1NC(=O)CCS(=O)(=O)c1ccc2c(c1)oc(=O)n2C	5	-4.4	0.4%	-4	-0.3	-1
Cc1ccc(C(=O)CCC(=O)NNC(=O)c2ccccc2O)cc1	-5	-2.4	1.4%	-1	0.3	0
O=C(CCSc1ccc(Cl)cc1)N1CCOCC1	2	0.3	3.1%	-2	-0.4	0
Cc1ccc(-c2nnc(CSc3nnc(COc4ccccc4)n3-c3ccc(C)cc3)o2)cc1	-17	-3.7	-3.3%	3	5.7	-7
CC(C)(C)C(=O)Nc1ccccc1C(=O)NCCCn1ccnc1	-23	-2.3	-1.5%	-6	0.7	?
Cc1cc(OCCCC(=O)NNC(=O)c2ccncc2)ccc1Cl	0	-2.8	0.6%	6	-0.5	17
Nc1ccn([C@H]2C[C@H](O)[C@@H](CO)O2)c(=O)n1	1&4	-6.1&-1.2	1.0%&0.4%	7&-4	-0.7&-1.0	-2&0
CN1C(=O)C2C=CC1C1C(=O)N(c3ccccc3)C(=O)C21 (configuration not stated)	4	1.2	-3.4%	1	-1.0	-1
COc1ccc2cc(CN(CCc3ccccc3)Cc3nnnn3CC3CCCO3)c(=O)[nH]c2c1 (configuration not stated)	1	0.9	-1.3%[38.3 µM]	-12	1.6	-1
O=C1N/C(=N/N=C/c2ccccc2)SC1(c1ccccc1)c1ccccc1	5	-1.0	/	-8	-0.3	3
Cc1cc(=O)[nH]c(SCC(=O)NNC(=O)Cc2ccccc2)n1	0	-5.1	-0.3%	-6	0.4	0
FC(F)(F)COc1nc(N/N=C/c2cccnc2)nc(N2CCCCC2c2ccccn2)n1 (configuration not stated)	-8	3.9	3.1%	-6	-1.0	0
COCCCn1c(SCC(=O)NC2CCCC2)nnc1-c1ccncc1	-13	-1.6	0.4%	-11	-0.2	-5
COc1ccc(-n2cnnc2SCC(=O)NCc2cccs2)cc1	5	1.9	-0.7%	-1	-0.5	8
Cc1ccc(S(=O)(=O)N2CCN(C(=O)COC(=O)COc3ccc(Cl)cc3)CC2)c(C)c1	-13	-5.4	1.5%	-6	0.1	4

Record cards, as listed above. Order of screens: CtBP-E1A inh | D2 agonist | PINK1 modulator | D2 PAM | TRPML1 agonist | Six1-Eya2 inh
COc1ccc(-n2cnnc2SCC(=O)NCc2cccs2)cc1 is listed as 5 | 1.9 | -0.7% | -1 | -0.5 | 8
FC(F)(F)COc1nc(N/N=C/c2cccnc2)nc(N2CCCCC2c2ccccn2)n1 (configuration not stated) is listed as -8 | 3.9 | 3.1% | -6 | -1.0 | 0
COc1ccc2cc(CN(CCc3ccccc3)Cc3nnnn3CC3CCCO3)c(=O)[nH]c2c1 (configuration not stated) is listed as 1 | 0.9 | -1.3%[38.3 µM] | -12 | 1.6 | -1

Following part.
SMILES	CtBP-E1A inh	D2 agonist	PINK1 modulator	D2 PAM	TRPML1 agonist	Six1-Eya2 inh
Cc1cc(C)n2nc(SCC(=O)NC(=O)c3ccccc3Cl)nc2n1	6	-7.6	-0.3%	13	0.7	4
CN1CCN(c2ccc([N+](=O)[O-])cc2S(=O)(=O)N2CCOCC2)CC1	3	-2.5	-1.4%	1	2.2	1
COc1cc(CNC(C)(C)CO)cc(Br)c1OCc1ccc(Cl)cc1Cl	-11	2.0	-2.5%	-19	0.2	2
Cc1ccccc1N1C(=O)CSC1=C(C#N)C#N	8	1.2	2.7%	5	1.1	-4
Cn1c(=O)c2c(nc(-n3ccnc3)n2Cc2ccc(Cl)cc2Cl)n(C)c1=O	34	-0.1	-0.8%[38.3 µM]	2	-0.4	-3
O=S(=O)(Nc1ccc2ccccc2n1)c1ccc2c(c1)CCO2	0	-2.7	0.8%	-6	1.9	0
O=C(COc1ccc(F)cc1Br)NCc1ccccn1	5	1.4	-2.6%	3	1.2	4
COc1ccc(CCNC(=O)C(=O)c2cn(CC(=O)N3CCCC3)c3ccccc23)cc1OC	-5	-1.4	2.6%	-8	-0.7	-7
Cc1onc(-c2c(F)cccc2Cl)c1C(=O)OCC(=O)N1C(C)CCCC1C (configuration not stated)	3	-1.7	2.6%	-9	0.3	4
COCCC1CCCCN1C(=O)c1ccc2nc(Cc3ccccc3F)oc2c1 (configuration not stated)	3	-1.5	-2.0%	-6	-0.5	-1
CNC(=O)c1cc(C(=O)c2ccc(C(F)(F)F)cc2)c[nH]1	-2	-3.4	4.6%	-2	0.2	0
COc1ccc(CNC(=O)COc2cccnc2[N+](=O)[O-])cc1	1	-4.5	-0.3%	-11	-0.3	0
Cc1cc(C)n(CNc2nc(C(F)(F)F)cs2)n1	0	-0.4	0.0%	12	-0.3	9
COc1ccc(-c2nc(CSCC(=O)N3CCN(C)CC3)c(C)o2)cc1OC	6	-2.5	-1.3%	-1	1.6	2
CCCn1c(-c2cccnc2Cl)nc2cc(Cl)c(Cl)cc21	1	4.5	-0.6%[38.3 µM]	?	0.9	-1
O=C(c1cnn(C(=O)c2ccccc2)c1)c1ccccc1O	3	-0.8	1.5%	-9	-0.1	3
Nc1nc2n(n1)C(c1cccs1)CC(c1ccc(F)cc1)N2 (configuration not stated)	2	0.8	-2.8%[38.3 µM]	-1	1.3	-1
COc1ccc(/C=N/Nc2nc(C)cc(-c3ccccc3)n2)c(OC)c1	-1	0.4	4.4%	0	1.0	3
